HIV Env fusion: blocks HIV Env-driven cell-cell fusion | HeLa-JRFL Env/CEM21 cell fusion, luciferase | inhibition, % at 12.3 µM | actives 1.1% (n = 360,000);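 active = mean replicate inhibition score of at least 50 and every replicate individually at or above 50; inconclusive = only one of the two criteria met; inactive = mean below 50 and not all replicates reaching 50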;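 also: 0% = plate neutral controls and 100% = maraviroc near 300 nM; one replicate is shown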
UUG fidelity: modulators of start codon recognition fidelity in yeast; S. cerevisiae UUG-firefly luciferase reporter, luminescence/redox ratio; AID 602363; actives 0.13% (n = 350,000); activity score, % at 18.7 µM;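 active = replicate mean at a twofold rise or more, about +100% in these data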;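 also: firefly luciferase made from a UUG start codon reports start codon fidelity; reporter light over untreated wells divided by growth signal over untreated wells; some hits fall short of that in this replicate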
* = called active by the depositor; ? = inconclusive; [ ] = remark or other dose. An excerpt. The share of hits here may be higher or lower than overall.

Compound	HIV Env fusion	UUG fidelity
Cc1cc(C)cc(NC(=O)Nc2ccc3c(c2)C(=O)N(C)[C@H]2CC[C@@H](CC(=O)O)O[C@H]2CO3)c1	6.0[16.7 µM]	4.3
Cc1noc(C)c1NC(=O)Nc1ccc2c(c1)C(=O)N([C@@H](C)CO)C[C@H](C)[C@@H](CN(C)S(=O)(=O)c1ccccc1)OCCCC[C@@H](C)O2	-37.5[16.7 µM]	6.4
CCCNC(=O)N(C)C[C@@H]1Oc2ncc(C#CC3CC3)cc2C(=O)N([C@@H](C)CO)C[C@@H]1C	9.4[16.7 µM]	-5.7
C[C@@H]1CN([C@H](C)CO)C(=O)c2cc(NS(=O)(=O)c3ccccc3)ccc2O[C@H]1CN(C)Cc1ccc2c(c1)OCO2	-3.5[16.7 µM]	-1.3
Cc1noc(C)c1NC(=O)N[C@@H]1CC[C@@H](CC(=O)NCc2ccc(Cl)c(Cl)c2)O[C@@H]1CO	6.4[16.7 µM]	-11.4
N#C[C@H]1[C@@H](c2ccc(C#Cc3ccccc3F)cc2)[C@@H](CO)N1C(=O)C1CC1	2.2[16.7 µM]	15.3
C[C@H](CO)N1C[C@H](C)[C@@H](CN(C)C(=O)Nc2ccc(F)cc2)Oc2ccc(NS(=O)(=O)c3ccc(F)cc3)cc2CC1=O	3.6[16.7 µM]	-6.5
Cc1ccc(S(=O)(=O)N(C)C[C@@H]2Oc3ccc(NC(=O)Nc4ccc5c(c4)OCO5)cc3C(=O)N([C@@H](C)CO)C[C@@H]2C)cc1	?	-7.0
CN(C)C(=O)C[C@H]1CC[C@H](NS(=O)(=O)c2ccccc2)[C@H](CO)O1	35.4[16.7 µM]	-14.9
C[C@H](CO)N1C[C@H](C)[C@H](CN(C)S(=O)(=O)c2cccs2)Oc2ccc(NS(=O)(=O)c3cn(C)cn3)cc2CC1=O	24.6[16.7 µM]	-8.8
COc1ccc(NC(=O)Nc2ccc3c(c2)C(=O)N([C@H](C)CO)C[C@H](C)[C@H](CN(C)CC2CCCCC2)O3)cc1	14.5[16.7 µM]	-3.6
C[C@@H]1CN([C@H](C)CO)C(=O)c2cc(C#CCc3ccccc3)cnc2O[C@@H]1CN(C)C(=O)C1CC1	-2.3[16.7 µM]	-8.3
CC(C)C#Cc1ccc2c(c1)O[C@H](CN(C)C(=O)CC1CC1)[C@H](C)CN([C@H](C)CO)S2(=O)=O	3.6[16.7 µM]	-17.8
CO[C@H]1CN(C)C(=O)c2cc(NS(=O)(=O)c3cccc(Cl)c3)ccc2OC[C@H](C)NC[C@H]1C	-6.4[16.7 µM]	-10.1
CO[C@@H]1CN(C)C(=O)c2ccc(NS(C)(=O)=O)cc2OC[C@@H](C)N(C(=O)C2CCOCC2)C[C@@H]1C	-1.0[16.7 µM]	-5.7
Cc1ccc(S(=O)(=O)N[C@H]2CC[C@H](CCNC(=O)C3CCOCC3)O[C@@H]2CO)cc1	-3.0[16.7 µM]	-7.3
C[C@@H]1CCCCO[C@H](CN(C)C)[C@@H](C)CN([C@H](C)CO)C(=O)c2cc(NS(=O)(=O)c3cccs3)ccc2O1	13.3[16.7 µM]	-12.9
COc1ccc(-c2cnc3c(c2)C(=O)N([C@H](C)CO)C[C@@H](C)[C@@H](CN(C)C(=O)CN(C)C)O3)cc1	-4.0[16.7 µM]	-1.7
C[C@H]1CCCCO[C@H](CN(C)C(=O)Nc2ccc3c(c2)OCO3)[C@@H](C)CN([C@@H](C)CO)C(=O)c2cc(NC(=O)Nc3ccc(F)cc3)ccc2O1	16.8[16.7 µM]	0.5
C[C@H]1CN([C@@H](C)CO)C(=O)CCCn2cc(nn2)CO[C@@H]1CN(C)Cc1ccncc1	-0.1[16.7 µM]	-11.1
Cc1noc(C)c1S(=O)(=O)N(C)C[C@H]1Oc2ccc(NC(=O)CCC(F)(F)F)cc2CC(=O)N([C@H](C)CO)C[C@H]1C	16.5[16.7 µM]	8.1
CCOC(=O)c1cn(C[C@H](Cc2ccccc2)NC(=O)N[C@H](CO)CCc2oc(C(C)=O)c(C(=O)OC)c2C(=O)OC)nn1	-3.3[16.7 µM]	6.6
O=C(N[C@H]1C=C[C@@H](CC(=O)N2CCOCC2)O[C@H]1CO)c1ccccn1	10.4[16.7 µM]	-9.1
CN(C)CC(=O)Nc1ccc2c(c1)[C@H]1C[C@@H](CC(=O)NCc3ccncc3)O[C@@H](CO)[C@H]1O2	-0.8[16.7 µM]	-21.2
C[C@H]1CN([C@@H](C)CO)C(=O)c2cccc(NS(=O)(=O)c3ccc(Cl)cc3)c2O[C@@H]1CN(C)C(=O)Nc1cccc2ccccc12	-5.7[16.7 µM]	-7.0

Gathered by group, those above containing a Cl atom.
Compound	HIV Env fusion	UUG fidelity
Cc1noc(C)c1NC(=O)N[C@@H]1CC[C@@H](CC(=O)NCc2ccc(Cl)c(Cl)c2)O[C@@H]1CO	6.4[16.7 µM]	-11.4
CO[C@H]1CN(C)C(=O)c2cc(NS(=O)(=O)c3cccc(Cl)c3)ccc2OC[C@H](C)NC[C@H]1C	-6.4[16.7 µM]	-10.1
C[C@H]1CN([C@@H](C)CO)C(=O)c2cccc(NS(=O)(=O)c3ccc(Cl)cc3)c2O[C@@H]1CN(C)C(=O)Nc1cccc2ccccc12	-5.7[16.7 µM]	-7.0

Next structures follow:
Compound	HIV Env fusion	UUG fidelity
C/C=C/c1cnc2c(c1)C(=O)N([C@H](C)CO)C[C@H](C)[C@@H](CN(C)Cc1ccccc1F)O2	4.2[16.7 µM]	10.1
C[C@H]1CN([C@@H](C)CO)C(=O)c2cc(-c3cncnc3)cnc2O[C@H]1CN(C)C(=O)Cc1cccnc1	-10.2[16.7 µM]	6.4
CO[C@@H]1CN(C)C(=O)c2cc(NS(C)(=O)=O)ccc2OC[C@@H](C)N(Cc2nccs2)C[C@H]1C	7.4[16.7 µM]	-4.0
C[C@@H]1CCCCO[C@H](CN(C)C(=O)Nc2ccccc2)[C@@H](C)CN([C@H](C)CO)C(=O)c2cc(NC(=O)c3ccncc3)ccc2O1	4.4[16.7 µM]	2.5
C[C@@H]1CCCCO[C@H](CN(C)C(=O)Nc2cccc3ccccc23)[C@H](C)CN([C@@H](C)CO)C(=O)c2cc(NC(=O)c3ccncc3)ccc2O1	-29.4[16.7 µM]	7.6
CC(C)CC#Cc1cnc2c(c1)C(=O)N([C@H](C)CO)C[C@H](C)[C@@H](CN(C)Cc1ccccc1)O2	10.1[16.7 µM]	16.5
C[C@H](CO)N1C[C@H](C)[C@H](CN(C)C(=O)C2CCOCC2)Oc2ncc(-c3ccccc3)cc2C1=O	-18.2[16.7 µM]	-12.7
COc1ccc(NC(=O)Nc2ccc3c(c2)C(=O)N([C@H](C)CO)C[C@@H](C)[C@@H](CN(C)S(=O)(=O)c2ccccc2)OCCCC[C@H](C)O3)cc1	-5.2[16.7 µM]	11.7
C[C@@H]1CN([C@@H](C)CO)S(=O)(=O)c2ccc(-c3cccnc3)cc2O[C@@H]1CN(C)Cc1ccncc1	-18.0[16.7 µM]	-14.5
C[C@H](CO)N1C[C@H](C)[C@@H](CN(C)C(=O)Nc2ccc(F)cc2)Oc2ccc(NS(=O)(=O)c3ccc(F)cc3)cc2C1=O	-13.2[16.7 µM]	5.5
C[C@@H]1CN([C@@H](C)CO)S(=O)(=O)c2ccc(C3=CCCC3)cc2O[C@@H]1CN(C)S(=O)(=O)c1cn(C)cn1	3.9[16.7 µM]	-9.0
Cc1noc(C)c1S(=O)(=O)N(C)C[C@@H]1Oc2c(NC(=O)c3cnccn3)cccc2C(=O)N([C@@H](C)CO)C[C@@H]1C	1.2[16.7 µM]	33.0
CNC[C@H]1Oc2c(NC(=O)Nc3ccc(C(F)(F)F)cc3)cccc2C(=O)N([C@H](C)CO)C[C@@H]1C	-2.5[16.7 µM]	34.0
CC(=O)N(C)C[C@@H]1Oc2ncc(-c3ccc(C)cc3)cc2C(=O)N([C@H](C)CO)C[C@@H]1C	7.7[16.7 µM]	-3.9
COc1ccc(NC(=O)Nc2ccc3c(c2)C(=O)N([C@@H](C)CO)C[C@@H](C)[C@@H](CN(C)Cc2ccccc2)OCCCC[C@H](C)O3)cc1	-26.5[16.7 µM]	16.7
C[C@@H]1CN([C@@H](C)CO)C(=O)c2cc(NC(=O)NC3CCCCC3)ccc2O[C@@H](C)CCCCO[C@H]1CN(C)Cc1ccc(C(F)(F)F)cc1	-42.9[16.7 µM]	16.8
O=C(C[C@H]1CC[C@H](NC(=O)C2CC2)[C@@H](CO)O1)Nc1nccs1	4.3[16.7 µM]	-15.1
COc1ccc(NC(=O)Nc2ccc3c(c2)C(=O)N([C@H](C)CO)C[C@H](C)[C@H](CN(C)C(=O)CCCN(C)C)OCCCC[C@@H](C)O3)cc1	-23.7[16.7 µM]	0.8
C[C@@H]1CN([C@@H](C)CO)S(=O)(=O)c2ccc(C3=CCCC3)cc2O[C@H]1CN(C)C(=O)c1cccnc1	-20.2[16.7 µM]	-9.2
COc1ccc(S(=O)(=O)Nc2ccc3c(c2)C(=O)N([C@H](C)CO)C[C@@H](C)[C@@H](CN(C)S(=O)(=O)c2ccccc2)O3)cc1	-14.7[16.7 µM]	9.6
Cc1ccc(S(=O)(=O)N[C@@H]2CC[C@H](CC(=O)NCc3ccccc3F)O[C@H]2CO)cc1	2.5[16.7 µM]	-11.2
C[C@H](CO)N1C[C@H](C)[C@@H](CN(C)C(=O)C2CCCCC2)OCCCC[C@H](C)Oc2ccc(NC(=O)CCC(F)(F)F)cc2C1=O	-4.4[16.7 µM]	24.1
C[C@H](CO)N1C[C@H](C)[C@@H](CN(C)C(=O)c2ccncc2)Oc2ncc(-c3ccncc3)cc2C1=O	-0.8[16.7 µM]	-5.0
Cc1ccccc1S(=O)(=O)NCC[C@H]1CC[C@H](NC(=O)C2CCC2)[C@@H](CO)O1	1.9[16.7 µM]	-7.9
Cc1ccc(S(=O)(=O)N(C)C[C@@H]2OCCCC[C@@H](C)Oc3ccc(NC(=O)NC4CCCCC4)cc3C(=O)N([C@@H](C)CO)C[C@H]2C)cc1	-1.6[16.7 µM]	-11.4

(listing goes on)
Compound	HIV Env fusion	UUG fidelity
C[C@H]1CCCCO[C@H](CN(C)C(=O)c2ccccc2)[C@@H](C)CN([C@@H](C)CO)C(=O)c2cc(NC(=O)Nc3ccccc3)ccc2O1	-47.9[16.7 µM]	30.0
C[C@H](CO)N1C[C@H](C)[C@H](CN(C)S(=O)(=O)c2cn(C)cn2)Oc2ccc(NC(=O)NC3CCCCC3)cc2CC1=O	-20.6[16.7 µM]	3.4
O=C(C[C@H]1C[C@H]2c3cc(NC(=O)C4CCC4)ccc3O[C@H]2[C@@H](CO)O1)NCc1cc(F)ccc1F	-3.2[16.7 µM]	-3.3
Cc1ccc(S(=O)(=O)Nc2ccc3c(c2)C(=O)N([C@H](C)CO)C[C@H](C)[C@@H](CN(C)C(=O)C2CCCCC2)OCCCC[C@H](C)O3)cc1	-179.2[16.7 µM]	15.1
Cc1ccc(S(=O)(=O)N[C@H]2CC[C@@H](CC(=O)N3CCN(c4ccccc4)CC3)O[C@H]2CO)cc1	15.0[16.7 µM]	1.1
COc1ccccc1NC(=O)N[C@@H]1CC[C@H](CC(=O)N[C@@H](C)c2ccccc2)O[C@@H]1CO	10.7[16.7 µM]	2.4
C[C@H](CO)N1C[C@H](C)[C@@H](CN(C)CC2CC2)Oc2c(NC(=O)c3ccc(-c4nccs4)cc3)cccc2C1=O	20.0[16.7 µM]	7.3
C[C@@H]1CCCCO[C@@H](CN(C)Cc2ccc3c(c2)OCO3)[C@H](C)CN([C@H](C)CO)C(=O)c2cc(N(C)C)ccc2O1	-27.6[16.7 µM]	6.5
C[C@H](CO)N1C[C@H](C)[C@@H](CN(C)S(C)(=O)=O)OCCCC[C@H](C)Oc2ccc(NC(=O)Nc3cccc4ccccc34)cc2C1=O	13.0[16.7 µM]	8.7
C[C@H](CO)N1C[C@H](C)[C@@H](CN(C)C(=O)Nc2ccccc2)OCCCC[C@H](C)Oc2ccc(NS(C)(=O)=O)cc2C1=O	-4.2[16.7 µM]	20.0
O=C(NCc1ccccc1)[C@@]1(CCS(=O)(=O)c2ccccc2)COC(c2ccc(OCCCO)cc2)=N1	-10.9[16.7 µM]	7.7
COc1ccc([Si](C)(C)[C@H]2[C@H](CCn3cc(CCO)nn3)O[C@@]3(C(=O)N(Cc4cccc(N5CCC5=O)c4)c4ccccc43)[C@@H]2C)cc1	0.0[16.7 µM]	15.1
C[C@@H]1CN([C@@H](C)CO)C(=O)c2cc(C#C[C@@H](C)O)cnc2O[C@H]1CN(C)C(=O)c1ccccc1	15.6[16.7 µM]	9.1
Cc1noc(C)c1S(=O)(=O)Nc1ccc2c(c1)CC(=O)N([C@@H](C)CO)C[C@@H](C)[C@@H](CN(C)S(=O)(=O)c1ccccc1)O2	2.6[16.7 µM]	20.0
CC(C)CC#Cc1ccc2c(c1)O[C@@H](CN(C)CC1CCOCC1)[C@@H](C)CN([C@@H](C)CO)S2(=O)=O	-15.3[16.7 µM]	-11.0
COc1ccccc1-c1ccc2c(c1)O[C@@H](CN(C)CC1CCOCC1)[C@H](C)CN([C@@H](C)CO)S2(=O)=O	5.2[16.7 µM]	1.5
CNC(=O)C[C@@H]1CC[C@H]2[C@H](COc3ccc(NC(=O)Nc4ccccc4)cc3C(=O)N2C)O1	-0.3[16.7 µM]	1.9
Cc1noc(C)c1S(=O)(=O)Nc1ccc2c(c1)C(=O)N([C@H](C)CO)C[C@H](C)[C@@H](CN(C)C(=O)CCC(F)(F)F)OCCCC[C@@H](C)O2	-16.6[16.7 µM]	-2.0
C[C@H]1CN([C@@H](C)CO)C(=O)c2cccc(NC(=O)C3CC3)c2O[C@@H]1CN(C)C(=O)Nc1ccccc1	12.4[16.7 µM]	-13.8

Screening data: PubChem, Broad Institute
